gsp ag: agonists of gsp mutant (McCune-Albright syndrome); gsp mutant cells, cAMP HTRF, 30 min; control for the full effect not named in the record; Potency, µM (series often up to 76.9 µM), for inactives: top-dose activation (cAMP increase), hits mostly activators; 340,000 tested, 0.13% active; active = well fitted activation curve with a large enough effect; inconclusive = small, poorly fitted or top-dose-only effect, or another doubt; inactive = no such curve, though single readings can be large or run the other way; cell line not stated here;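 also: phosphodiesterase inhibitor Ro 20-1724 added with compounds to block cAMP breakdown; potency is read from the fitted curve at half-maximal effect; nearly all actives have a fitted effect of over 60% in size; about a fifth of the inactives were tested at one dose only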
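Cells in DMEM/10% FBS with G418 were pretreated with compounds in DMSO plus […] (300 uM stock) for 30 min at 37C. cAMP was measured by HTRF (cAMP-d2 plus anti-cAMP antibody-K) after 30 min at room temperature.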
ClpP mod: qHTS Assay for Activators of ClpP | ATP-dependent Clp protease proteolytic subunit (Bacillus subtilis (strain 168)), P80244 | purified B. subtilis ClpP, FRET peptide cleavage, 20 min | Potency, µM (doses to about 57.5 µM), inactives show at the highest dose activity change, negative = active | 340,000 tested, 1.9% active | AID 651965, 2013; active = well fitted falling curve with a large enough effect; inconclusive = small, poorly fitted or top-dose-only effect; inactive = no such curve, though single readings can be large or run the other way; also: potency is read from the fitted curve at half-maximal effect; the source files actives as falling curves though it sought activators and does not explain the sign; nearly all actives have a fitted effect of over 65% in size; many hits overshoot -100%
Target sequence (P80244 whole entry, looked up): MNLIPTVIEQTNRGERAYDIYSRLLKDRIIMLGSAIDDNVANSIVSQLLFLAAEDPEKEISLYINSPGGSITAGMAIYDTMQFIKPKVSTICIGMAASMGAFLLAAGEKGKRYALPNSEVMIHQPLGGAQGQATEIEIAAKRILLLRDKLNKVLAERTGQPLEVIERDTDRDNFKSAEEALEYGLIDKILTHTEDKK
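FRET quenching reversal measured ClpP activation: 10 microg/mL B. subtilis ClpP at pH 8 with the FRET-FV decapeptide, read at 430 nm after 320 nm excitation. The 20-min minus 0-min signal was scaled between DMSO/no-enzyme wells and ADEP (5.8 microM final).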
CtBP-E1A blk: inhibitors of CtBP/E1A interaction; activity change, % (test concentration not listed); 340,000 tested, 0.49% active; AlphaScreen GST-E1A/His-CtBP binding, 1536-well; stronger effect = lower value; control for the full effect not named in the record; in the data active means activity change below about -65%; inconclusive means about -30% to -65%; inactive means above about -30%; also: % is scaled to controls: 0 for no effect and ±100 for the full control effect; compound concentration not given in the record
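In 5 uL wells, 23 nL compound meets equimolar GST-E1A and His-CtBP (5X stock 125 nM each) for 2 h, 37 °C. Beads (5X, 50 ug/mL) then 1 h, 37 °C, dark.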
Menin-MLL FL inh: displaces fluorescein MLL peptide from human menin. Fluorescence polarization, fluorescein-MLL peptide displacement from menin. FP activity change, % at 61.4 µM. 290,000 tested, under 10 active; inconclusive = falling polarisation curve, or a change in total fluorescence; inactive = total fluorescence flat and polarisation flat or rising; no compound was filed as active; the % refers to the polarisation; negative = inhibition;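 also: % of control where 0% means no effect; inhibitors lower the polarisation; unlabelled MLL peptide was the positive control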
TRPV1 potentiator: enhances activation of the human vanilloid receptor TRPV1. potentiation, % at 8.33 µM. TRPV1-expressing cells, Fluo-8 calcium influx, capsaicin EC20 potentiation; host cell line not named in the record; control for the full effect not named in the record. Q8NER1. AID 540277. 320,000 tested, 0.02% active; active means potentiation above 80%; inconclusive means 30% to 80%; inactive means below 30%; also: 0% is about no effect
Target sequence (Q8NER1 whole entry, looked up): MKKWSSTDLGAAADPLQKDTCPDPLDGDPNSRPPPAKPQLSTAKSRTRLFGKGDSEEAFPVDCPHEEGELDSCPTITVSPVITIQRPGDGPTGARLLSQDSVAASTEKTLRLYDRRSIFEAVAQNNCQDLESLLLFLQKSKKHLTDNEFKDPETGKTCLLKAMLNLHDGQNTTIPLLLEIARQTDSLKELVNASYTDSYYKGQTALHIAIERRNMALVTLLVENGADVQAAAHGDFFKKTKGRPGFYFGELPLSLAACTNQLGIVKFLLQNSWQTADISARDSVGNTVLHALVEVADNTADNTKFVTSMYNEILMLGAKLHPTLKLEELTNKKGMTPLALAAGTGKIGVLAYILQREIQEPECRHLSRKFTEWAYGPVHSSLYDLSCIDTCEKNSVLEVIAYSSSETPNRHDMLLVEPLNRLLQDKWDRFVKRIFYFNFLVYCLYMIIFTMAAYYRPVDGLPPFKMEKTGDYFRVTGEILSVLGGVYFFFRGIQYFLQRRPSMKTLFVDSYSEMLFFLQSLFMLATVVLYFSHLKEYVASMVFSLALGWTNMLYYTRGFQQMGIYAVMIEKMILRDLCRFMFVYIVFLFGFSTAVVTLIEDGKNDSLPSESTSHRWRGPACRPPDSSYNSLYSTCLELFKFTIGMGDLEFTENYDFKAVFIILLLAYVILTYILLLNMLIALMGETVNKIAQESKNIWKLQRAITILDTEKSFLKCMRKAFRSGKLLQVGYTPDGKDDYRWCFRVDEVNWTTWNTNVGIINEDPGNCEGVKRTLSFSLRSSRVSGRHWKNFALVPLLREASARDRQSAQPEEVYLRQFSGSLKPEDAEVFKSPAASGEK
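TRPV1-expressing cells were cultured overnight at 35.5C and loaded with Fluo-8 calcium dye for 40 to 90 min at room temperature. After a 10 s baseline, compound was added and calcium influx was read kinetically for 3 min (ex 480/em 520 nm).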
Sfp inh: blocks B. subtilis Sfp PPTase activity; Q9F4F7; Biochemical Sfp PPTase activity, qHTS; Potency, µM, for the others: max response, negative = inhibition, most hits filed as inhibitors; 310,000 tested, 3.5% active; active = well fitted inhibition curve with a large enough effect; inconclusive = small, poorly fitted or top-dose-only effect, or another doubt; inactive = no such curve, though single readings can be large or run the other way;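 also: the enzyme is Sfp with the accession as filed and its product quenches rhodamine fluorescence; potency is read from the fitted curve at half-maximal effect; 0% = enzyme reaction without inhibitor and -100% = no enzyme wells; top concentration of the series not given in the record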
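Fluorescence-quenching assay: 15 nM Sfp-PPTase preincubated 15 min at room temperature with compound, then 5 uM rhodamine-CoA and 12.5 uM BHQ-2-labelled YbbR peptide added. Fluorescence (ex 525/em 598 nm) read at start and after 30 min; difference gives rate.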
gsp antag: gsp mutant antagonism. gsp-mutant cells, cAMP HTRF, 30 min; control for the full effect not named in the record. Potency, µM (series often up to 76.9 µM), inactives show at the highest dose activity change, negative = inhibition, hits mostly inhibitors. 340,000 tested, 0.4% active. AID 624288; active = falling curve of any shape with a large fitted effect; inconclusive = falling curve, mostly with a smaller effect; inactive = flat or rising curve; cell line not stated here;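 also: intracellular cAMP measured with PDE inhibitor Ro 20-1724 present during compound exposure; potency is read from the fitted curve at half-maximal effect; % is scaled to controls: 0 for no effect and ±100 for the full control effect; nearly all actives have a fitted effect of over 65% in size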
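Measurement of cellular cAMP by homogeneous time-resolved fluorescence following a 30 min compound exposure at 37C. The PDE inhibitor […] was present throughout; the assay buffer was DPBS with 0.05% BSA and 0.005% Tween 20.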
An asterisk follows results filed as active; ? = inconclusive; . = not tested or not shown; [ ] = dose if it differs, or a comment.

| nr | Structure | gsp ag | ClpP mod | CtBP-E1A blk | Menin-MLL FL inh | TRPV1 potentiator | Sfp inh | gsp antag |
| --- | --- | --- | --- | --- | --- | --- | --- | --- |
| 1 | C=C1C(=O)c2sccc2C(c2ccc(OC)c(OC)c2)C1COC(C)=O (centres undefined) | -66% | -4.4% | -17 | . | . | . | 4% |
| 2 | Cc1ccc(Nc2ncnc3nc[nH]c23)cc1Cl | -4% | -0.3% | 5 | -1.0 | -10 | -9% | 3% |
| 3 | CCCC(=O)N(CCc1ccc(OC)cc1)Cc1nc2ccccc2c(=O)[nH]1 | 4% | -3.5% | 2 | 4.4 | 2 | 5% | -3% |
| 4 | COc1cc2c(=O)n(CC3CCCO3)c(=O)n(CC(=O)Nc3ccc(F)cc3F)c2cc1OC (centres undefined) | -15% | 5.0% | -25 | -0.3 | -36 | 21% | -2% |
| 5 | Cc1occc1C(=O)NC1CCCc2ccccc21 (centres undefined) | -1% | 0.4% | 9 | -3.9 | -1 | 9% | -13% |
| 6 | COc1ccc(-c2[nH]ncc2CN2CCCN(C(=O)c3ccco3)CC2)cc1F | 11% | -0.5% | 1 | 2.5 | -17 | 21% | -7% |
| 7 | COc1ccc(-c2c(C#N)c(SCC(=O)Nc3ccccc3)nc3c2CCCC3)cc1 | 0% | -14% | -2 | . | . | . | -9% |
| 8 | CCN(C[C@H]1N[C@@](C)(C(=O)OC)[C@H]2C(=O)N(C)C(=O)[C@@H]12)C(=O)COC | . | -0.1% | 7 | . | . | . | 12% |
| 9 | COC(=O)C1=C(C)N=c2s/c(=C3\C(=O)Nc4ccccc43)c(=O)n2C1c1ccccc1 (centres undefined) | . | . | . | -1.2 | 0 | 1% | . |
| 10 | CCn1cc(C(=O)N[C@@H](CCSC)C(=O)NCCCO)c(=O)c2cc3c(cc21)OCO3 | -11% | -29% | . | 0.5 | 1 | 12% | 8% |
| 11 | CCCCNC(=O)C1CCCN(S(=O)(=O)c2c(C)noc2/C=C/c2cccs2)C1 (centres undefined) | 3% | -1.4% | . | 0.2 | -7 | 2% | ? |
| 12 | Cc1nc2sccn2c(=O)c1S(=O)(=O)NCC(C)c1ccccc1 (centres undefined) | -70%[inhibitor] | 4.1% | -7 | -4.0 | -12 | 6% | 1% |
| 13 | Cn1nc(-c2ccc(Cl)cc2)c2cc(C(=O)NCCN3CCOCC3)sc21 | -35%[inhibitor] | 4.8% | ? | 0.9 | -9 | -1% | -9% |
| 14 | CC1Sc2ccc(S(=O)(=O)CCC(=O)NC(C)c3ccccc3)cc2NC1=O (centres undefined) | 10% | -2.8% | -2 | 7.9 | 6 | 9% | 5% |
| 15 | O=C1CCCc2c1nc(-c1cccc(Cl)c1)n2O | 3% | -10% | 44 | 0.5 | 8 | -12% | 6% |
| 16 | COc1ccc2c(CC(=O)Nc3c(C)n(C)n(-c4ccccc4)c3=O)coc2c1 | 1% | -2.4% | 7 | 4.8 | 12 | 14% | -6% |
| 17 | O=C(Nc1ccccc1)C1=C[C@H](c2ccc3c(c2)OCO3)C[C@H](OCCCCO)O1 | . | -5.2% | 1 | -3.7 | 17 | -16% | -11% |
| 18 | O=C(NCc1ccccc1Cl)C1CCC(=O)N(C2CCCC2)C1 (centres undefined) | 6% | -0.2% | 5 | -0.9 | -14 | 14% | 7% |
| 19 | COC(=O)CNC(=O)c1nn(-c2cccc(OC)c2)c(=O)c2ccccc12 | -9% | -1.1% | -1 | -0.6 | 7 | 5% | 0%[15.4 µM] |
| 20 | CCn1ccc(=O)c2cc3c(cc21)OCO3 | -7% | -17% | 4 | . | -17 | . | 7% |
| 21 | COc1ccc2oc(C(=O)OC(C)C(=O)NC3(C#N)CCCCC3)c(C)c2c1 (centres undefined) | -18% | 25µM* | 10 | . | -21 | . | -7% |
| 22 | CCNCc1ccc(OCc2ccccc2F)c(OC)c1 | -28% | 3.1% | . | -2.7 | 5 | 27% | 16% |
| 23 | CC1(C)CC(=O)c2cc(OCC(=O)NCc3cccnc3)ccc2O1 | -1% | 25µM* | 2 | 2.6 | 7 | 28% | 3% |
| 24 | CC(C)(C)c1ccc(-c2cc(C(=O)NNC(=O)Nc3ccccc3)c3ccccc3n2)cc1 | -11% | -20% | -4 | -2.2 | -17 | 11% | 5% |
| 25 | Cc1cccc2nc(CSc3nc4ccccc4[nH]3)cn12 | ? | . | 0 | 5.7 | 3 | 10% | 8% |
| 26 | CCc1cccc(NC(=O)Cc2cn(C)c3ccccc23)c1 | -5% | 1.0% | -9 | 2.2 | 4 | 12% | -7% |
| 27 | CCn1cnc2c1c(=O)n(CC(=O)NN)c(=O)n2Cc1ccccc1 | -17% | -0.2% | . | 4.7 | 11 | 5% | 0% |
| 28 | CC(=O)NC(Nc1c(C)n(C)n(-c2ccccc2)c1=O)C(Cl)(Cl)Cl (centres undefined) | -26% | 1.2% | 8 | 2.4 | 2 | 11% | 10% |
| 29 | COC(=O)Cc1sc(-c2ccccn2)nc1-c1ccccc1 | 11% | 4.6% | . | -0.4 | -24 | 22µM* | -31% |
| 30 | CC1=Nc2ccccc2/C1=C/c1sc(=N)n(-c2nccs2)c1O | 0% | 0.1% | ? | ? | 12 | -13% | 6% |
| 31 | Cc1ccccc1NC(=O)COC(=O)C1=COCCO1 | 1% | -0.4% | . | . | -1 | . | 2% |
| 32 | O=C(Nc1cccnc1N1CCOCC1)c1ccco1 | -1% | -5.6% | -1 | 1.9 | 1 | 7% | 8% |
| 33 | COc1ccc(N(C)S(=O)(=O)c2cccc(C(=O)Nc3nc(C)cs3)c2)cc1 | 25% | -0.3% | -9 | . | -16 | . | ? |
| 34 | Cc1cccc(NC(=O)CSc2nnnn2-c2cccnc2)c1 | 18% | 0.7% | 7 | 3.4 | 7 | 13% | 1% |
| 35 | COc1ccc(-c2noc(CNC(=O)Nc3ccc(F)cc3)n2)cc1 | -3%[15.4 µM] | . | -6 | 1.1 | -20 | 15% | -15% |
| 36 | Cc1ccc(CNC(=O)c2ccc(C)c(S(=O)(=O)N3CCCCC3)c2)cc1 | 16% | -0.9% | -1 | . | -2 | . | -12% |
| 37 | O=C(CNc1cccc(C(F)(F)F)c1)N/N=C/C1CCCCC1 | 28% | 0.8% | 6 | 0.2 | -30 | 0% | 11% |
| 38 | COc1ccc(C(=O)Nc2ccnn2C2CCN(Cc3ccn[nH]3)CC2)cc1 | 0% | 0.8% | 1 | . | 4 | 8% | 13% |
| 39 | COc1ccc(CCN(C)C(=O)c2c(C)nn(CC(C)C)c2Cl)cc1OC | -8% | -2.2% | -3 | . | -7 | 10% | 12% |
| 40 | Cn1c(=O)[nH]c(=O)c2c1nc(N1CCOCC1)n2CCSc1nnnn1-c1ccccc1 | ? | 1.6% | 3 | 4.1 | 1 | 1% | -13% |
| 41 | Cc1oc(=O)c(NC(=O)c2ccccc2)cc1C(=O)c1ccccc1 | -42%[inhibitor] | -0.8% | 5 | 1.9 | -8 | 16µM* | 4% |
| 42 | CCOc1cc(/C=N/n2cnnc2)cc(Br)c1O | 20% | -4.3% | -7 | 2.2 | -3 | 8% | -23% |
| 43 | C#CC1CCCCC1NC(=O)Nc1cnccc1C(F)(F)F (centres undefined) | 2%[15.4 µM] | 0.9% | 1 | 4.0 | 0 | 15% | 3% |
| 44 | COc1cccc(N2CCN(C(=O)CN3C(=O)NC4(CCCC4)C3=O)CC2)c1 | 1% | 0.9% | 5 | 0.8 | 10 | 18% | 6% |
| 45 | Cc1ccccc1-c1cccc([C@@H]2C[C@H]3[C@H](CON3C)CN2Cc2cc(Cl)cc(Cl)c2)c1 | . | -2.2% | -1 | . | . | . | 1% |
| 46 | O=c1ccccn1Cc1ccccc1F | -60%[inhibitor] | -0.4% | 0 | 0.2 | 9 | -8% | -2% |
| 47 | COc1cccc(-c2c(C(=O)N/N=C(\C)c3ccncc3)nnn2-c2nonc2N)c1 | -42%[inhibitor] | 0.7% | . | 0.0 | 17 | 36%[activator] | -13% |
| 48 | Cc1cc(NS(=O)(=O)c2ccc(NC(=O)COc3ccc(Cl)c(C)c3)cc2)no1 | -44%[inhibitor] | . | -3 | -0.9 | 0 | 14% | -12% |
| 49 | COc1ccccc1C1c2ccc3ccccc3c2Oc2ncn(CCN(C)C)c(=N)c21 (centres undefined) | -19%[15.4 µM] | . | -9 | 1.1 | -18 | -2% | 12% |
| 50 | CC(=O)c1c(C)nc2ccc(Br)cc2c1-c1ccccc1 | 8%[15.4 µM] | . | 6 | -4.6 | -15 | -23% | -8% |
| 51 | CCOC(=O)N1CCN(Cc2ccccn2)CC1 | 8% | 2.0% | 11 | 2.3 | 5 | 79µM* | 15% |
| 52 | O=C(Nc1ccc(C(F)(F)F)cc1)c1cccnc1N1CCOCC1 | 27% | -1.2% | 11 | 6.6 | 1 | 13% | 2% |
| 53 | O=c1[nH]c(NCCO)nc2ncn(Cc3ccccc3)c12 | 6% | 0.9% | 6 | 3.6 | 11 | 15% | 0% |
| 54 | CCOC(=O)c1ccc(NC(=O)c2cc3c(s2)CCC3)cc1 | 3%[15.4 µM] | . | -2 | -0.3 | -12 | ? | -12% |
| 55 | O=C(Nc1cc(S(=O)(=O)N2CCOCC2)ccc1N1CCCC1)c1cc(=O)[nH]c2ccccc12 | 7% | -7.7% | . | -28 | 0 | -33% | 3% |
| 56 | Cc1c(NS(=O)(=O)c2ccc(F)cc2)c(=O)n(-c2ccccc2)n1C | 13%[15.4 µM] | -0.7% | -4 | 1.0 | -8 | 4% | 2% |
| 57 | CC(=O)N(Cc1ccccn1)Cc1ccco1 | 6%[15.4 µM] | -1.1% | 8 | -8.6 | . | -19% | 24% |
| 58 | CN(C)S(=O)(=O)N1CCN(Cc2ccccc2)CC1 | 5% | -0.1% | 16 | -2.9 | 9 | 6% | 6% |
| 59 | COc1ccc(Oc2c(Cl)cnn(-c3ccc(F)cc3)c2=O)cc1 | 17% | 0.3% | 7 | -1.3 | 1 | -2% | 3% |
| 60 | COc1cc(OC)cc(C(=O)NCC(=O)OCc2nc3ccccc3s2)c1 | -1%[15.4 µM] | -14% | -11 | 0.7 | 2 | 8% | -4% |
| 61 | S=C1NCCN1CC1CCN(CC2CCCC2)CC1 | . | -6.1% | -7 | . | . | . | 5% |

Screening data deposited in PubChem BioAssay by National Center for Advancing Translational Sciences (NCATS).
